RanGTP-Impb inh: inhibitors of RanGTP-importin-beta interaction, primary screen, biochemical, FRET, CFP-Ran, YFP-importin-beta, homogeneous; cell-free CFP-Ran/YFP-importin-beta FRET ratio; inhibition, % (no concentration beside the values); 1.1% of 300,000 active; AID 2216;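 active = most replicates above 15%; inconclusive = exactly half above 15%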;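 note: 0% = DMSO wells and 100% = Ran loaded with GDP instead of GTP; wells of about 40 µL received 100 nL stock; the first replicate is given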
HNF4A DNA FP: change in binding of human HNF4 alpha to DNA; P41235; HNF4a-FITC DNA binding, fluorescence polarization, 1 h; 0.3% of 360,000 active; activity change, % at 10 µM; AID 1224865; in the data active = activity change above about 30%, passing the limit was not always enough;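 note: controls were the assay level and a saturating level of protein; the project sought stronger binding though the title names inhibitors; some compounds called inactive have numbers as strong as hits; positive values seem to mean higher polarization but the record does not say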
FGF22 binding: shifts melting point of recombinant human FGF22. Q9HCT0. recombinant FGF22 thermal shift, SYPRO orange fluorescence; percent of sucrose octasulfate shift, DMSO zero. calls only at 9.99 µM. 1.5% of 340,000 active. AID 651658;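 active = melting point raised past a set limit in the mean and every replicate; inconclusive = no clear call; three in four hits are not shown here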
Target sequence (Q9HCT0 whole entry, looked up): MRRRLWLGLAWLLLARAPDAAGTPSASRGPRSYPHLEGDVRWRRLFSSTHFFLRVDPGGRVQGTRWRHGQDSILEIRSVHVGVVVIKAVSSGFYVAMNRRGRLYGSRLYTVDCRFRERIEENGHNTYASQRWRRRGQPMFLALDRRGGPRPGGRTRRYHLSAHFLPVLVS
UCH37 DUB inh: blocks the human deubiquitinase UCH37 | 0.33% of 330,000 active | AID 588478 | purified proteasome/UCH37, Ub-AMC cleavage fluorescence | inhibition, % (no concentration beside the values);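 active = mean of two replicates above 20%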;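 note: 0% = compound-free wells with enzyme and 100% = wells lacking proteasome; stock transfer was 100 nL into about 20 µL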
Target sequence (Q9Y5K5 whole entry, looked up): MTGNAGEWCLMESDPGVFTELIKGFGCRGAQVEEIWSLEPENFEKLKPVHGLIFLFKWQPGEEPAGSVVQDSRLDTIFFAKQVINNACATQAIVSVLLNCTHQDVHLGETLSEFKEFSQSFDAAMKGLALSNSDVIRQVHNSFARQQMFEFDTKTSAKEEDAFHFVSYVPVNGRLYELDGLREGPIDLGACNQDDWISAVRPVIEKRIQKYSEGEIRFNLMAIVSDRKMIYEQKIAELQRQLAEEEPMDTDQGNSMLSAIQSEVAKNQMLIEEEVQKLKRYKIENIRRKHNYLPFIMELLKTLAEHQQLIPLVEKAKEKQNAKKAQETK
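Assay system: Proteasome-bound UCH37. Buffer or medium: pH 7.4 Tris-HCl (50 mM) with ovalbumin, ATP-MgCl2, DTT. Incubation: 30 min preincubation with enzyme, 25 min cleavage at room temperature. Measured by: fluorescence, ex 355 nm, em 460 nm. Read-out basis: percent inhibition. Control set: wells without proteasome as full block, compound-free enzyme plus substrate as uninhibited.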
Vif TR-FRET: HIV-1 Vif–A3G interaction blockers – biochemical, TR-FRET, GST-Vif 1-94, biotin-A3G peptide, dose response retest, primary screen (AID 1117319); TR-FRET GST-Vif / biotin-A3G peptide binding; higher % means a stronger effect; test concentration not given here; strong numbers were not always called active; 0.57% of 260,000 active; one-dose inhibition, %; IC50 in µM for titrated hits;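 active = above the screen mean plus three standard deviations and confirmed in dose response; inconclusive = results disagree or hit not tested in dose response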;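 note: Vif residues 1-94 fused to GST binding biotinylated APOBEC3G peptide 110-148; 0% = full assay without inhibitor and 100% = GST in place of GST-Vif; retest series ran down from 100 µM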
E coli growth: E. coli growth inhibition. Escherichia coli growth, OD600, 23 h; active compounds read low. OD600 absorbance (concentration not given with the values). 0.21% of 330,000 active. AID 1053175;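 active = OD600 absorbance below the run mean of sample wells minus 3.6 SD, in any replicate, cut at about 0.56 in these data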;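 note: stock transfer was 300 nL into about 60 µL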
MLL AF4-AF9 inh: MLL-AF4/AF9 protein interaction inhibition; AlphaScreen, biotin-AF4 peptide binding to FLAG-AF9; inhibition, % at 10 µM; 0.47% of 350,000 active; P42568;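 active = every replicate reaching a set inhibition limit, whatever the replicate mean, cut at about 25% in these data; inconclusive = mean inhibition reaches that limit but some replicates miss it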;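 note: 0% = plate neutral control median and 100% = total signal loss; the record names both 10 and 1 µM as test concentration; the first replicate is given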
Target sequence (P42568 whole entry, looked up): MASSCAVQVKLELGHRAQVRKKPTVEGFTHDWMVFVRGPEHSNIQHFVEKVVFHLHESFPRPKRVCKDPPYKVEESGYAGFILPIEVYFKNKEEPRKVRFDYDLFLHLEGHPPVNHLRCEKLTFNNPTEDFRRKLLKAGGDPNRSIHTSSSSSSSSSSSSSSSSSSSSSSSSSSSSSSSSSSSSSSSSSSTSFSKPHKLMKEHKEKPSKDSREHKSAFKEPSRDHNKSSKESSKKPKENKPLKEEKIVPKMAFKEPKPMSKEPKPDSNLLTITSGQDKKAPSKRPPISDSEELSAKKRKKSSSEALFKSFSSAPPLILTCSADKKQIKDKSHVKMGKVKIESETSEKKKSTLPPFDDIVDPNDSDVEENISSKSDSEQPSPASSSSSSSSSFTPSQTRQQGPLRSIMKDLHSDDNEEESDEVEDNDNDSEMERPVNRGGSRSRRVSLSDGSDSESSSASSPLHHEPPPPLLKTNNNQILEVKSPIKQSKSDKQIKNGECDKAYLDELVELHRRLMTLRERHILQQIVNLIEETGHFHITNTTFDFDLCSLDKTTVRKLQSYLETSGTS
Active calls of the source: *; i = inactive; ? = inconclusive; . = not tested or not shown; + = active, no number; & = joins results of further samples.

SMILES	RanGTP-Impb inh	HNF4A DNA FP	FGF22 binding	UCH37 DUB inh	Vif TR-FRET	E coli growth	MLL AF4-AF9 inh
Cc1ccc(S(=O)(=O)N2CCN(C(=O)CSc3nnc(C)c(=O)[nH]3)CC2)cc1	-0.6	2.8	.	5.1	7%	0.73	.
O=C(Nc1ccccc1)c1ccccc1OCC(O)CN1C(=O)c2ccccc2S1(=O)=O (centres undefined)	1.1	4.8	.	3.6	9%&6%	0.67	.
O=C(CN1CCN(S(=O)(=O)c2ccccc2)CC1)Nc1ccc2c(c1)OCO2	-0.3	2.9	.	3.0	?	0.72	.
COc1ccc(CCNC(=O)CCCn2ncn3c(cc4occc43)c2=O)c(OC)c1	2.9	5.7	i	1.7	.	0.71	-1.8
NC(=NCCc1ccccc1)NS(=O)(=O)c1ccc2ccccc2c1	-0.1	-0.5	.	1.6	4%	0.64	.
Cc1ccc2cc3c(nc2c1)N(c1ccccc1)CC3	0.0	0.2	.	-82	-9%	0.69	-2.4
O=C(O)c1cccc(S(=O)(=O)Nc2ccc(S(=O)(=O)N3CCOCC3)cc2)c1	1.9	-5.2	i	-0.4	-5%	0.69	-4.6
O=C(CN1C(=O)NC(Cc2c[nH]c3ccccc23)C1=O)Nc1cccc(S(=O)(=O)N2CCCC2)c1 (centres undefined)	2.3	-4.2	i	5.4	2%	0.68	0.1
Cc1n[nH]c(C)c1S(=O)(=O)N1CCN(S(=O)(=O)c2cccc(F)c2)CC1	.	-5.5	i	-0.7	5%	0.66	-17
COc1ccc(CN(C)C(=O)c2sccc2-c2ccccc2)c(OC)c1	?	4.4	i	2.8	-9%	0.73	3.1
CCOCCCNC(=O)c1cc2c(-c3ccc(Cl)cc3)nn(C)c2s1	8.1	-1.3	i	-31	-4%	0.75	0.7
COc1ccc(CN2C(=O)N(c3ccc(OC)cc3)C(=O)C2CC(=O)Nc2ccccc2)cc1 (centres undefined)	-0.1	2.8	+	3.1	-2%	0.78	-0.6
COc1ccc(C2CC(=O)Oc3cc(OC)ccc32)cc1 (centres undefined)	.	1.5	i	5.4	38%	0.71	-1.8
Cc1c(NC(=O)COC(=O)c2ccc(Br)o2)c(=O)n(-c2ccccc2)n1C	0.8	3.1	i	1.6	1%	0.72	1.1
O=C(C#Cc1ccccc1)c1ccccc1	.	-0.8	i	.	-9%	.	0.2
Cc1cccc(NC(=O)c2cccc(C(=O)Nc3cccc(C)n3)c2)n1	2.1	-0.6	i	1.5	.	0.62	4.0
CCCC(=O)Nc1ccc(C(=O)Nc2nnc(COCC)s2)cc1	-3.1	-0.5	.	3.1	24%	0.65	.
Cc1ccc(C(=O)Nc2nc(C(N)C(C)C)cs2)cc1 (centres undefined)	.	1.2	i	.	.	.	0.1
CCOc1cccc(C(=O)Nc2ccncc2)c1	-1.4	1.0	i	3.0	-4%	0.67	-2.5
C=CCn1c(SCC(=O)NC2CCS(=O)(=O)C2)nnc1-c1cc2c(s1)CCC(CC)C2 (centres undefined)	1.0	1.3	.	2.7	.	0.68	.
CO/N=C(\C)c1ncc(C(F)(F)F)cc1N1CCOCC1	?	-2.4	.	.	2%	.	.
O=C(c1cccc(C(F)(F)F)c1)N1CCC(=O)N(C(CO)Cc2ccccc2)CC1 (centres undefined)	1.9	-1.5	i	1.5	.	0.69	-4.4
CN(CC1CCOCC1)C(=O)CC1C(=O)NCCN1Cc1ccc(Cl)c(F)c1 (centres undefined)	1.8	-2.8	i	-5.1	0%	0.73	-35
CC1(C(=O)NS(=O)(=O)Cc2ccccc2)CCN1C(=O)Cc1ccccc1Cl (centres undefined)	.	-1.0	i	.	.	.	-18
COCCCNC(=O)c1cc(Nc2ccc(OC)cc2OC)nc2ccccc12	-1.9	1.7	i	5.7	3%	0.66	2.1
Cc1ccc2c(cnn2C(=O)CCC(=O)N2CCCCC2)c1	-0.1	-2.3	i	1.8	.	0.68	-6.7
CC1CN(C2CCN(S(=O)(=O)c3ccccc3)CC2)CC(C)O1 (centres undefined)	0.4	0.8	.	-1.3	-1%	0.68	.
CC(C)(C)C1CCc2onc(C(=O)NCc3ccc(F)cc3)c2C1 (centres undefined)	.	-2.0	.	-0.8	-8%	0.69	.
O=C(O)CNc1nc(-c2ccccc2)c2cc([N+](=O)[O-])ccc2n1	-3.9	-12	.	12	.	0.69	.
C[C@H]1CN([C@@H](C)CO)C(=O)c2cccc(NC(=O)Nc3ccc(F)cc3)c2O[C@@H]1CN(C)Cc1ccc(C(=O)O)cc1	.	-3.4	i	0.8	.	0.78	-2.1&3.0
O=S(=O)(NCCc1ccc(Cl)cc1)c1cccc2cccnc12	2.5	-3.0	i	-1.6	7%	0.66	-8.7
COc1cc2c(cc1N/C=C(\C#N)c1nc(-c3ccccc3)cs1)oc1ccccc12	-1.4	15	i	.	-6%	.	-1.3
CCCCCCNC(=O)c1ccc(Br)o1	-3.8	-4.0	i	-0.5	8%	0.68	-1.6
CCCCCCCC(=O)NC(Nc1ccccc1OC)C(Cl)(Cl)Cl (centres undefined)	0.0	0.9	.	0.3	4%	0.72	.
CCOC(=O)C(NC(C)=O)(NS(=O)(=O)c1ccccc1)C(F)(F)F (centres undefined)	-1.2	0.3	.	1.1	4%	0.7	.
CCOc1ccc(CCNC(=O)COC(=O)c2c(C)nn(-c3ccccc3)c2C)cc1OCC	-0.4	-3.1	i	0.7	.	0.68	-0.7
O=C(CCSc1ccccc1)NCCSc1ccccn1	2.5	-2.9	.	4.1	0%	0.71	.
O=C(O)c1cccc(S(=O)(=O)NCC2COc3ccccc3O2)c1 (centres undefined)	.	5.6	i	-0.2	-4%	0.69	0.7
COc1ccccc1OCC(=O)Nc1ccc(S(=O)(=O)N2CCCC2)cc1	-3.4	0.4	i	4.8	.	0.69	-0.1
CCN(CC)S(=O)(=O)c1ccc(OC(C)C)c(N)c1	5.8	1.8	i	1.3	2%	0.65	1.5
OCCN1CCN(CC(O)COc2ccc(-c3ccccc3)cc2)CC1 (centres undefined)	-1.8	0.9	.	3.3	?	0.73	.
O=C1C(Cl)=C(NCC2CCCO2)C(=O)N1Cc1ccccc1 (centres undefined)	-3.6	5.1	.	2.3	-2%	0.73	.
O=C(N=C1SC2CS(=O)(=O)CC2N1c1ccc(OC(F)(F)F)cc1)C1CC1 (centres undefined)	-1.8	0.5	i	4.9	.	0.67	-7.2
O=C(c1cc(S(=O)(=O)N2CCCC2)c(Cl)cc1Cl)N1CCCC1	0.2	1.4	i	1.7	.	0.65	-0.7
Cc1ccc(Sc2ncccc2[N+](=O)[O-])cc1	9.0	-3.6	i	3.7	-1%	0.68	2.3
O=C(c1ccc(CS(=O)c2ccccc2Cl)o1)N1CCN(c2ccccc2)CC1 (centres undefined)	5.2	-0.9	i	.	.	.	4.5
Cc1cc(Cl)ccc1NC(=O)CN1CCCC1	1.3	0.0	i	1.5	.	0.67	-9.8
NS(=O)(=O)c1ccc(NN=C2CCN(Cc3ccccc3)CC2)c([N+](=O)[O-])c1	1.6	0.4	i	1.8	6%	0.71	2.1
c1ccc(Nc2ccnc(Nc3ccccc3)n2)cc1	0.8	-4.5	i	3.8	3%	0.62	2.7
Nc1nc(-c2ccc3c(c2)CCC(=O)N3)cs1	2.3	1.3	i	3.0	-9%	0.65	-2.2
O=C1C2CCCN2C(c2ccccc2)N1c1ccc(F)cc1 (centres undefined)	?	-0.8	i	0.6	1%	0.76	-3.4
Cc1cccc(NC(=O)c2cc(NC(=O)C3CC=CCC3C(=O)O)ccc2N2CCOCC2)c1 (centres undefined)	2.2	1.3	.	1.7	3%	0.68	.
Cc1cccc(-c2noc(CCC(=O)Nc3ccc(C(N)=O)cc3)n2)c1	2.4	-2.5	i	7.8	-5%	0.63	-2.5
Cc1ccc(NC(=O)CSc2n[nH]c(=O)n2C2CC2)cc1S(=O)(=O)N1CCOCC1	-0.9	-2.3	i	4.8	.	0.68	1.3
O=C(COC(=O)c1n[nH]c2ccccc12)c1cc(F)ccc1F	0.7	1.1	i	2.7	2%	0.67	0.0
O=[N+]([O-])c1cc(-c2cccnc2)n[nH]1	.	1.4	i	0.4	3%	0.66	0.2
O=C(Nc1nnc(C2CC2)s1)C1COc2ccccc2O1 (centres undefined)	-0.2	1.6	.	4.6	-7%	0.73	-2.3
OCCN(Cc1ccccc1)CC(O)COc1ccc2c(c1)OCO2 (centres undefined)	2.1	1.3	i	4.4	-5%	0.66	1.3
CC(C)(C)Cc1nnc(NC(=O)CN2C(=O)c3ccccc3C2=O)s1	2.5	-3.3	i	-0.1	7%	0.68	-5.5
O=C(c1ccco1)N1CCN(S(=O)(=O)c2ccc3c(c2)OCCO3)CC1	-2.8	0.0	.	1.9	-1%	0.71	.

Record cards, as listed above. Screens in order: RanGTP-Impb inh, HNF4A DNA FP, FGF22 binding, UCH37 DUB inh, Vif TR-FRET, E coli growth, MLL AF4-AF9 inh
Entry for NS(=O)(=O)c1ccc(NN=C2CCN(Cc3ccccc3)CC2)c([N+](=O)[O-])c1 : 1.6, 0.4, i, 1.8, 6%, 0.71, 2.1
Entry for O=C(COC(=O)c1n[nH]c2ccccc12)c1cc(F)ccc1F : 0.7, 1.1, i, 2.7, 2%, 0.67, 0.0

Continued:
SMILES	RanGTP-Impb inh	HNF4A DNA FP	FGF22 binding	UCH37 DUB inh	Vif TR-FRET	E coli growth	MLL AF4-AF9 inh
CN(C)CCCN(C(=O)c1ccc2ccccc2c1)c1nc2cc3c(cc2s1)OCO3	1.2	2.7	i	2.7	.	0.68	33*
CCOC(=O)c1nc(-c2ccccc2)oc1N1CCOCC1	2.2	-0.7	i	-34	-5%	0.68	1.2
COc1cc(CNc2ncnc3c2ncn3[C@H]2CN(Cc3ccc(-c4ccccc4)cc3)C[C@@H](CO)O2)cc(OC)c1OC	.	1.8	i	.	.	.	1.3
CC12CC3(C)CC(C)(C1)CC(C(=O)NCc1cccnc1)(C2)C3	1.2	1.4	i	2.8	.	0.64	-3.4
O=P1(c2ccccc2)C=Cn2c1cc1c2CCCC1 (centres undefined)	5.6	-8.2	.	0.3	-5%	0.72	.
O=C(NCCC1=CCCCC1)c1ccc(F)c(S(=O)(=O)N2CCOCC2)c1	1.3	-1.3	.	-2.1	-2%	0.71	.
O=c1oc2ccccc2c2c1ncn2-c1ccccc1	-3.5	0.6	.	0.2	-6%	0.7	.
CCNc1nc(NCC)nc(N/N=C/c2ccc(O)c(O)c2)n1	6.4	-2.8	i	.	?	.	5.3
Cc1cc(-n2c(C)cc(C(=O)CSc3ccc4c(c3)OCCO4)c2C)no1	2.2	0.2	.	3.8	4%	0.74	.
Cc1cnc(C(=O)OCC(=O)NC(C)CCc2ccccc2)cn1 (centres undefined)	-3.5	0.5	i	1.9	.	0.7	-3.7
CC(=O)Oc1ccc(-n2c(=O)c3ccccc3c3ccccc3c2=O)cc1	2.5	-2.1	i	-1.3	-2%	0.67	-14

Arranged by length of the SMILES (rising): part of the list above.
SMILES	RanGTP-Impb inh	HNF4A DNA FP	FGF22 binding	UCH37 DUB inh	Vif TR-FRET	E coli growth	MLL AF4-AF9 inh
O=c1oc2ccccc2c2c1ncn2-c1ccccc1	-3.5	0.6	.	0.2	-6%	0.7	.
CC(=O)Oc1ccc(-n2c(=O)c3ccccc3c3ccccc3c2=O)cc1	2.5	-2.1	i	-1.3	-2%	0.67	-14
O=C(NCCC1=CCCCC1)c1ccc(F)c(S(=O)(=O)N2CCOCC2)c1	1.3	-1.3	.	-2.1	-2%	0.71	.

Not all compounds are listed (hit frequency here may not be typical).
